Screening data (PubChem)
Beta cell apopt – beta cell apoptosis inhibition | protection from apoptosis, % (concentration not given with the values) | INS-1E cytokine-induced death, ATP luminescence, 48 h; percent of positive-control rescue, neutral wells zero | AID 435005 | 300,000 compounds, 0.8% hits;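 active = all replicates at 75% or more, or half of them and the mean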;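 note: 0% = cytokine-treated negative control wells and 100% = positive control rescue; higher means more ATP so stronger rescue from cytokine killing; wells of about 40 µL received 100 nL stock; the first replicate is given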
LANA-H2B inh – blocks KSHV LANA binding to histone H2A/H2B; cell-free LANA-H2A/H2B peptide, fluorescence polarization; inhibition, % (test concentration not listed); 320,000 compounds, 0.6% hits; AID 2629; Q9QR71; in the data active = inhibition mostly above about 10%, no sharp cut-off; inactive = mostly below about 6.7%;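 note: stock transfer was 7.5 nL into about 10 µL; 0% = median of vehicle wells and 100% = median of positive control wells; one replicate is shown; the record names a cut of 25% in any replicate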
T cruzi inh – T. cruzi replication inhibition; T. cruzi beta-gal in NIH3T3, luminescence, 90 h; inhibition, % (test concentration not listed); 300,000 compounds, 1.4% hits; AID 1885;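 active = mean inhibition across valid replicates above about 55%, limit read from the data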;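 note: signal also drops with host cell toxicity which is not excluded here; 0% = plate median of DMSO wells and 100% = zero luminescence signal; higher percent means less beta-gal luminescence so fewer parasites; stock transfer was 50 nL into about 50 µL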
Calb FLC – affects C. albicans growth with fluconazole; C. albicans CaCi-2 (fluconazole-resistant clinical isolate) + fluconazole, Alamar Blue growth, 48 h; growth inhibition, % (test concentration not listed); 300,000 compounds, 0.57% hits; AID 1979;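 active = most replicates above 75%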;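 note: all wells also contain fluconazole at 8 µg/ml as a sub-toxic cotreatment; 0% = median of DMSO wells and 100% = median of geldanamycin control wells; wells of about 8 µL received 7.5 nL stock; the first replicate is given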
Beta2AR agonist – human beta-2 adrenergic receptor agonism by FAP; response, % (concentration not given with the values); Am2.2-beta2AR cells, FAP receptor internalization, flow cytometry; reference of the scale not given here; 340,000 compounds, 0.43% hits;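 active = response above a set limit, near 3 SD of response in nonfluorescent compounds, cut at about 42% in these data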;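 note: stock transfer was 100 nL into about 11 µL; a reference agonist was the positive control; negative values mostly stem from fluorescent compounds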
Target sequence (P07550 whole entry, looked up): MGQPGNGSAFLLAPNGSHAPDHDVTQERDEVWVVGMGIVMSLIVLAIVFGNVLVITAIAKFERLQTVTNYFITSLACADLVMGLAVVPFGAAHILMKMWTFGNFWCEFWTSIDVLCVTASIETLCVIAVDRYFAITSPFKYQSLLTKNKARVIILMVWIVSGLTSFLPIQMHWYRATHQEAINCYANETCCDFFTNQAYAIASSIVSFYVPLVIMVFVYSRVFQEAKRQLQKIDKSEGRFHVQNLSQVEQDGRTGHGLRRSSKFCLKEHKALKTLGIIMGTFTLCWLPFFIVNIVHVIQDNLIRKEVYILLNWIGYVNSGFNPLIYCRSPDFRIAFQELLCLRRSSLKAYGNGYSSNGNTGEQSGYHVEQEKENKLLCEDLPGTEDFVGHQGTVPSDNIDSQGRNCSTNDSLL
A1 inh – inhibitors of the anti-apoptotic protein A1, read as caspase activation. MEF A1-2A-BIM cells, Caspase-Glo 3/7 luminescence, 3 h; percent of clofoctol response, vehicle zero. caspase activation, % (concentration not given with the values). AID 2462. 330,000 compounds, 0.066% hits;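 active = over half of replicate activation scores above 10%, or exactly half above 10 with the replicate mean above 10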;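 note: wells of about 30 µL received 50 nL stock; many hits fall short of the cut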
ALR H2O2 inh – blocks human ALR sulfhydryl oxidase activity; 290,000 compounds, 3.8% hits; P55789; inhibition, % (test concentration not listed); purified ALR, DTT oxidation, H2O2 HRP-luminol luminescence;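 active = mean and each replicate at 75% or more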;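 note: stock transfer was 7.5 nL into about 7.5 µL; 0% = neutral wells and 100% = wells with inactivated enzyme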
Target sequence (P55789 whole entry, looked up): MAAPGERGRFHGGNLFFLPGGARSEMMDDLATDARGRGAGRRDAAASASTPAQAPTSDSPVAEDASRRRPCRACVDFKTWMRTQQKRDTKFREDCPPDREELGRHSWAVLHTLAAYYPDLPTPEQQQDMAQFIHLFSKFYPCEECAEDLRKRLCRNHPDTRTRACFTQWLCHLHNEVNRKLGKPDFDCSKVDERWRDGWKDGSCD
Ecoli rRNA inh – selective bacterial rRNA inhibition in E. coli. E. coli WT GFP vs humanized-ribosome RFP mutants, fluorescence, 24 h; hits give low values; DMSO median 0, no signal -100. GFP signal change (wild-type ribosome), % (test concentration not listed). 350,000 compounds, 1.6% hits. AID 720706;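 active = significant combined selectivity score with lowered wild-type GFP, culture density cut under 30%, mutant RFP and density less affected; inactive = any of these conditions unmet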; note: one replicate is shown; some compounds called inactive have numbers as strong as hits
Ecoli rRNA inh OD600 – further read-out of Ecoli rRNA inh, marked with its call; OD600 change, %; measured here: OD600 growth;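 optical density of the mix in the first replicate; 0 = DMSO median and -100 = no signal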
Ecoli rRNA inh RFP – further read-out of Ecoli rRNA inh, marked with its call; RFP signal change, %; measured here: RFP humanized mutant strains;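 first replicate; 0 = DMSO median and -100 = no signal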
* marks the source's active call; other numbers are inactive results; · = not tested or not shown. This is a subset; the hit share may differ from the screen's.

SMILES | Beta cell apopt | LANA-H2B inh | T cruzi inh | Calb FLC | Beta2AR agonist | A1 inh | ALR H2O2 inh | Ecoli rRNA inh | Ecoli rRNA inh OD600 | Ecoli rRNA inh RFP
COc1ccc(C(=O)NNC(=O)CSc2nnc(C)n2C)cc1 | -5 | -0.3 | -16 | -26 | 2 | 0.2 | -21 | 7 | 7 | -0.6
Cn1c(=O)c2c(nc3n2CC(COc2ccc(Cl)cc2)O3)n(C)c1=O (stereo unspecified) | -6 | 0.5 | 11 | -25 | -9 | 1.1 | -2 | 3 | 8 | -1.9
Nc1c(C(=O)Nc2ccccc2F)sc2nc(-c3cccnc3)ccc12 | 3 | -1.7 | 9 | 12 | -1 | 1.0 | 7 | -12 | 1 | 5.2
O=C(NC(=S)Nc1ccccc1N1CCCC1)c1ccccc1Br | 1 | -1.7 | 21 | 2 | 5 | -0.2 | -2 | 2 | -1 | 59
CCN(CC)C(=O)C(=O)c1cccn1-c1cccc(-n2cccc2C(=O)C(=O)N(CC)CC)c1C#N | 3 | -5.0 | -2 | -3 | 0 | -0.6 | -10 | · | · | ·
CCSc1nnc(NC(=O)CCc2ccc(OC)cc2)s1 | 1 | -3.3 | -8 | 1 | 5 | 0.7 | -8 | · | · | ·
NC(=O)N1CCC2(CC1)NC(=O)N(c1ccccc1)N2 | 2 | 2.6 | 2 | 109* | -12 | -0.9 | -16 | 15 | 14 | -1.5
CCCOc1ccc(/C=N/NC(=O)CN(c2ccc(OCC)cc2)S(C)(=O)=O)cc1 | 3 | -1.8 | 1 | 3 | -3 | -0.6 | -13 | 13 | 15 | 4.6
Cc1ccnc(Nc2nc3ccccc3o2)n1 | 20 | 3.4 | -12 | -9 | 17 | -8.0 | -15 | 4 | 16 | 1.9
CCn1c(=O)cc(OCC(=O)NCCCN2CCCC2=O)c2ccccc21 | -6 | 1.4 | -1 | 2 | 6 | 0.0 | -12 | -6 | 6 | 6.2
CC1CCCN(CC(O)COc2ccc3c(c2)OCO3)C1 (stereo unspecified) | -5 | 5.1 | 5 | -8 | -4 | 0.4 | -11 | 5 | 1 | 2.3
CC1CN(S(=O)(=O)c2cccc(C(=O)N(CCc3ccccc3)Cc3ccccc3)c2)CC(C)O1 (stereo unspecified) | 17 | -3.8 | 35 | -3 | -1 | 0.9 | -3 | · | · | ·
CCCN(C(=O)c1cccs1)c1nnc(-c2ccncc2)s1 | 0 | -0.5 | -8 | 10 | -24 | 0.3 | -3 | · | · | ·
Cn1c(SCC(=O)Nc2ccc(F)cc2)nc2c(c1=O)SCC2 | 3 | 4.0 | -3 | 3 | -5 | 0.5 | 40 | -2 | -4 | 0.5
Cc1ccc(C)c(C(=O)Nc2cc(C)nn2-c2nc(C)cc(C)n2)c1 | 2 | 0.2 | 28 | 21 | -2 | 0.7 | -5 | 12 | 11 | 1.5
CC(=O)c1ccc(N2C(=O)C3C4C=CC(CC4)C3C2=O)cc1 (stereo unspecified) | 4 | -4.2 | -15 | -2 | -1 | -0.2 | -9 | -9 | 2 | 4.3
Cc1ccc(-c2csc(NC(=O)CCCc3cccs3)n2)cc1 | 3 | -8.7 | -4 | -2 | -5 | -0.2 | -3 | · | · | ·
Cc1nc2ncnn2c(C)c1Cc1ccc(Cl)cc1F | -7 | 0.1 | 0 | -7 | 3 | 0.4 | 10 | 0 | 5 | 0.8
CN(C)S(=O)(=O)N1CCC(Oc2ccc(C(=O)NC3CCCCC3)cc2)CC1 | 3 | 1.9 | 1 | 5 | 6 | 0.6 | -7 | 19 | 15 | 2.7
CCc1c(C(=O)N/N=C/c2cn[nH]c2-c2ccc(F)cc2)csc1C | -11 | -1.3 | -1 | -3 | -18 | 0.2 | · | · | · | ·
Cc1ccc(N(CC(=O)Nc2ccc3c(c2)OCCO3)S(=O)(=O)c2c(C)n[nH]c2C)cc1 | 6 | 3.1 | 6 | 8 | 4 | 0.7 | 3 | · | · | ·
CC(=O)c1cccc(NC(=O)CSCc2ccc(Br)cc2)c1 | -5 | 3.4 | -10 | -2 | 2 | 0.2 | -10 | · | · | ·
CC(OC(=O)C1CSC2(c3ccc(F)cc3)CCC(=O)N12)C(=O)NC(N)=O (stereo unspecified) | -4 | -4.8 | -6 | -12 | 7 | 0.8 | -9 | 9 | 12 | 0.8
O=C(CSc1nnc(CNC(=O)c2cccs2)o1)Nc1ccccc1C(F)(F)F | -4 | 3.3 | 18 | -1 | -2 | -1.2 | -3 | 2 | 7 | 1.0
O=C(NCCN1CCOCC1)c1cc(Sc2ccccc2Cl)nc2ccccc12 | -3 | 0.5 | 5 | 4 | · | 0.5 | 3 | -16 | -14 | -7.7
Nn1c(SCc2cc([N+](=O)[O-])cc3c2OCOC3)nnc1-c1cccnc1 | -6 | 4.7 | 2 | -7 | -7 | 0.0 | -3 | 10 | -1 | -1.5
CN(CC(=O)N1CCCC1)S(=O)(=O)c1ccc2ccccc2c1 | 7 | 17* | -10 | -19 | -5 | 0.1 | -1 | -9 | -10 | -2.2
CC1(C)CC(=O)C2=C(C1)Nc1ccccc1NC2c1ccc2c(c1)OCO2 (stereo unspecified) | -4 | 3.1 | 11 | -3 | 5 | -0.8 | 99* | · | · | ·
CCOc1ccc(S(=O)(=O)N2CCCCC2)cc1NC(=O)CN1CCCC1c1cccs1 (stereo unspecified) | 108* | 3.6 | · | · | 11 | 0.0 | 1 | 1 | -14 | -2.1
Cc1ncc(CO)c2c1Oc1nc(-c3ccccc3)nc(SCC(=O)Nc3cccc(O)c3)c1C2 | 3 | -3.2 | -2 | -8 | 5 | -0.6 | -3 | -16 | -16 | -3.1
CCOC(=O)c1cc(CC)sc1NC(=O)COC(=O)c1ccccn1 | -1 | 2.3 | 1 | 7 | 2 | 0.6 | -4 | 3 | -6 | -1.3
CN(Cc1ccon1)C(=O)CC1C(=O)NCCN1Cc1ccc(F)c(F)c1 (stereo unspecified) | · | -1.9 | 17 | -4 | 1 | 0.1 | -16 | · | · | ·
Cc1cccc(NCCC(=O)c2ccc(Br)cc2)c1 | 5 | 2.2 | 32 | -14 | 1 | -1.0 | 10 | 2 | -5 | -1.0
COc1nonc1NC(=O)CSc1nc2ccccc2[nH]1 | -7 | 0.3 | -13 | -9 | -2 | -0.2 | -23 | · | · | ·
Nc1c(N)c2ccccc2oc1=O | 2 | 13 | -9 | 3 | -7 | -0.3 | 6 | · | · | ·
CCN1C(=O)N[C@@H](c2ccc(Br)cc2)C(C(=O)OC)=C1C | 0 | 3.4 | · | · | -14 | 1.5 | -6 | 1 | 1 | -6.1
N#CCSc1nnc(SCC#N)s1 | -7 | 3.6 | 3 | 10 | -1 | 1.2 | 1 | 3 | 3 | 6.7
CCN(CC)CCCNC(=O)c1cc(-c2cccc(Cl)c2)on1 | 5 | 2.2 | 27 | -7 | -7 | 0.8 | 1 | · | · | ·
CCn1c(SCC(=O)Nc2sc3c(c2C(N)=O)CCC(C)C3)nnc1-c1ccco1 (stereo unspecified) | -1 | -3.1 | -14 | -1 | -17 | 0.5 | 60 | · | · | ·
CCOc1ccc(Nc2ccc(S(=O)(=O)N3CCN(C)CC3)cc2[N+](=O)[O-])cc1OCC | -8 | -0.6 | · | · | 2 | -1.2 | -13 | 2 | 4 | -1.5
O=c1[nH]c(=S)[nH]c2c1C(c1ccc(Br)cc1)c1c([nH]c(=S)[nH]c1=O)O2 | -17 | -6.5 | 0 | 7 | · | -0.6 | · | -1 | 12 | 0.2
CC1=C(C(=O)Nc2ccccc2F)C(c2ccsc2)C2=C(CC(c3ccccc3)CC2=O)N1 (stereo unspecified) | -11 | -1.5 | 56* | -5 | -8 | 0.9 | -12 | · | · | ·
O=C(Nc1ccc(Cc2ccncc2)cc1)C1CC1 | · | -1.4 | -8 | -2 | -5 | -0.2 | -10 | 8 | 6 | -1.7
COc1cccc(CN2CCN(C(=O)c3cc(-c4cccnc4)nc4ccc(C)cc34)CC2)c1 | -5 | 7.6 | 9 | 6 | 7 | 0.3 | -17 | -27* | -18* | -0.3*
Cc1ccc(C(=O)Cn2c(=N)n(N)c3ccccc32)cc1 | -1 | 2.2 | 4 | -22 | -13 | -0.5 | 0 | 10 | 18 | 2.8

Three compounds from above, ordered by their value in Beta2AR agonist, largest number first:
SMILES	LANA-H2B inh	Beta2AR agonist	ALR H2O2 inh	Ecoli rRNA inh	Ecoli rRNA inh OD600	Ecoli rRNA inh RFP
COc1cccc(CN2CCN(C(=O)c3cc(-c4cccnc4)nc4ccc(C)cc34)CC2)c1	7.6	7	-17	-27*	-18*	-0.3*
COc1nonc1NC(=O)CSc1nc2ccccc2[nH]1	0.3	-2	-23	·	·	·
CC1=C(C(=O)Nc2ccccc2F)C(c2ccsc2)C2=C(CC(c3ccccc3)CC2=O)N1 (stereo unspecified)	-1.5	-8	-12	·	·	·

(further entries)
SMILES | Beta cell apopt | LANA-H2B inh | T cruzi inh | Calb FLC | Beta2AR agonist | A1 inh | ALR H2O2 inh | Ecoli rRNA inh | Ecoli rRNA inh OD600 | Ecoli rRNA inh RFP
O=C1CCC(C(=O)Nc2cc(C(F)(F)F)ccc2-n2cncn2)=NN1 | · | 2.4 | 1 | -1 | 10 | 0.3 | 0 | 1 | 7 | -1.2
CC(/C=C/c1ccccc1)=N/NC(=O)c1nc2nc(C)cc(C)n2n1 | -6 | 1.2 | -10 | -2 | -7 | 0.1 | -3 | 19 | 13 | 14
CC(C)Oc1ccc(S(=O)(=O)N2CCOCC2)cc1NC(=O)C1CCCC1 | -12 | -4.8 | · | · | -11 | -1.2 | 1 | · | · | ·
NNC(=O)c1cccnc1Oc1ccccc1 | -4 | 2.7 | -6 | -4 | -2 | -0.9 | 9 | 10 | 9 | 2.2
Oc1ccc(Br)cc1-c1nc2cnccn2c1NC1CCCCC1 | 2 | 0.4 | -16 | -15 | 6 | -0.7 | 92* | -39 | -37 | 5.7
Cc1c(C(=O)NCc2ccccc2)cnn1-c1ccccc1 | -5 | 1.0 | -1 | -8 | -2 | -0.4 | -6 | · | · | ·
COCCOC(=O)c1[nH]c2c(c1C)C(=O)CC(c1ccc(OC)cc1)C2 (stereo unspecified) | -1 | -2.3 | -7 | 43 | 12 | 0.0 | 3 | 4 | -1 | -12
COc1cccc(-c2nc3n(n2)C(c2ccc4c(c2)OCO4)C(C(N)=O)=C(C)N3)c1 (stereo unspecified) | · | -0.4 | 0 | 17 | -2 | 0.4 | 2 | · | · | ·
CN1CC(=O)N(CC(=O)NCCc2ccc(F)cc2)c2ccccc2C1=O | 0 | 0.0 | · | · | -4 | -1.0 | -11 | · | · | ·
CCc1cc(CNC(=O)c2ccc(OC)c(OC3CCN(C(C)C)CC3)c2)on1 | -1 | -0.8 | 12 | 1 | -3 | 0.5 | -26 | 7 | 13 | 0.2
Cc1ccc(S(=O)(=O)NCCCCCC(=O)Nc2nccs2)cc1 | -18 | 1.4 | 9 | -3 | 2 | -0.2 | -5 | -9 | -7 | 4.7
O=C(O)c1ccc(Cn2cc(/C=C\[N+](=O)[O-])c3ccccc32)o1 | 9 | 0.2 | 2 | 3 | 1 | 2.3 | 4 | 6 | 8 | 0.4
CC1(C)NC(=O)N(CC(=O)OCC(=O)c2ccc(F)cc2)C1=O | -2 | -2.6 | 3 | 0 | -4 | 0.2 | · | 10 | 10 | -1.8
Cn1c(N)c(C(=O)Nc2ccc3ccccc3c2)sc1=S | -5 | 0.7 | -4 | -11 | 10 | 0.2 | -4 | · | · | ·
